StopGo FLuc – Primary qHTS Assay for Foot and Mouth Disease Virus Antivirals against NCGC Sytravon and CBC Compound Libraries: Firefly Luciferase Signal; AID 1745856, 2022; 0.23% of 120,000 active; Potency, µM (doses to about 57.5 µM), without a hit: at the top dose signal change, negative = less light; HEK cells with a luciferase reporter of 2A StopGo recoding; active = well fitted falling curve with a large enough effect; inconclusive = small, poorly fitted or top-dose-only effect; inactive = no such curve, though single readings can be large or run the other way; also: nearly all actives have a fitted effect of over 60% in size; overnight with compound
2A Renilla – Primary qHTS Assay for Foot and Mouth Disease Virus Antivirals against NCGC Sytravon and CBC Compound Libraries: Renilla Luciferase Signal; AID 1745857, 2022; 0.32% of 120,000 active; HEK cells with a luciferase reporter of 2A StopGo recoding; Potency, µM (top dose mostly 57.5 µM), for the others: at the highest dose signal change, negative = less light; active means well fitted falling curve with a large enough effect; inconclusive means small, poorly fitted or top-dose-only effect; inactive means no such curve, though single readings can be large or run the other way; also: nearly all actives have a fitted effect of over 55% in size; overnight with compound
* marks the source's active call; other numbers are inactive results; ? = inconclusive; & = joins results of further samples; [ ] = dose if it differs, or a comment. % is scaled to controls: 0 for no effect and ±100 for the full control effect; potency is read from the fitted curve at half-maximal effect.

SMILES | StopGo FLuc | 2A Renilla
COc1c(Cl)cc(Cl)cc1CNCc1cccnc1 | 1% | -3%
CCN(Cc1ccccc1)C(=O)c1nn(-c2ccccc2)c(=O)c2ccccc12 | 16% | 83%[activator]
CC(C)NCC(O)c1ccc(O)c(O)c1 (stereo not given) | 18%[11.5 µM] | 2%
O=S(=O)(c1ccc2oc3ccccc3c2c1)N1CCOCC1 | 21% | 28%
CC(C)c1ccc(/C=C/C(=O)Nc2c(F)c(F)c(F)c(F)c2F)cc1 | 13% | 9%
COCCn1c(C)cc(O)c(C(c2ccccc2F)N2CCN(c3ccccc3)CC2)c1=O (stereo not given) | -23% | -8%
COCCOC(=O)c1c(C)n(S(=O)(=O)c2ccc(C)cc2)c2ccc(NS(=O)(=O)c3ccc(C)cc3)cc12 | -7% | 34%[activator]
COc1ccc2[nH]cc(C(C(=O)O)N3CCN(C(C)=O)CC3)c2c1 (stereo not given) | -2% | -3%
CCOC(=O)CCc1cc(C(=O)OCC)c(CCC(=O)OCC)cc1C(=O)OCC | -1% | 0%
Cn1c(=O)c2c(-c3ccccc3)n3c(c2n(C)c1=O)C(c1cccc(Cl)c1)OCC3(C)C (stereo not given) | -11% | -12%
CCOc1ccc(N2CC(NC(=O)c3ccc(S(=O)(=O)N4CCCCC4)cc3)CC2=O)cc1 (stereo not given) | -14% | -9%
CCC(=O)Nc1nc2c(C)cc(NS(=O)(=O)c3cccc(Cl)c3C)cc2s1 | -22% | 204%[activator]
Cc1ccc(NC(=O)c2nc3ccccc3nc2Cl)c(C)c1 | -9% | -24%
CCN1CCN(c2nc3c(S(=O)(=O)c4ccc(C)cc4)nnn3c3ccsc23)CC1 | -11% | 29%
CCn1c(SCC(=O)Nc2c(C)cccc2C)nnc1-c1nonc1NC(C)=O | 5% | -12%
O=C(O)c1cccnc1Sc1ccc(F)cc1 | -5% | 2%
CCOc1ccc(CNC(=O)C2CCN(S(=O)(=O)N3CCC(C)CC3)CC2)cc1OC | 1%&-15% | -4%&-11%
CC(NC(=O)Cn1c(-c2cccs2)cc2cc(F)ccc21)c1ccccc1 (stereo not given) | -9% | -4%
COC(=O)c1c(NC(=O)CCCOc2ccc(C)cc2)sc2c1C(C(=O)OC)CC2 (stereo not given) | -21% | -6%
CC(C)CCNC(=O)Cc1ccc(NC(=O)N2CCCCc3ccccc32)cc1 | -9% | 0%
COc1ccc(OC)c(C(=O)CSc2ncc3c(n2)-c2ccccc2N(Cc2ccccc2C)S3(=O)=O)c1 | -5% | -4%
O=C(CN1C=NS(=O)(=O)c2ccccc21)Nc1ccc(Br)cc1 | -7% | 203%[activator]
Cc1ccc(C(=O)COC(=O)c2ccc(O)cc2)s1 | 95%[activator] | 22%
O=C1c2ccccc2-c2onc3c(N4CCN(C5CCCCC5)CC4)cc(NCCO)c1c23 | -23% | -19%

Five entries drawn at random from the list so far, as already listed:
SMILES | StopGo FLuc | 2A Renilla
O=C(O)c1cccnc1Sc1ccc(F)cc1 | -5% | 2%
COCCn1c(C)cc(O)c(C(c2ccccc2F)N2CCN(c3ccccc3)CC2)c1=O (stereo not given) | -23% | -8%
Cn1c(=O)c2c(-c3ccccc3)n3c(c2n(C)c1=O)C(c1cccc(Cl)c1)OCC3(C)C (stereo not given) | -11% | -12%
COCCOC(=O)c1c(C)n(S(=O)(=O)c2ccc(C)cc2)c2ccc(NS(=O)(=O)c3ccc(C)cc3)cc12 | -7% | 34%[activator]
COc1ccc2[nH]cc(C(C(=O)O)N3CCN(C(C)=O)CC3)c2c1 (stereo not given) | -2% | -3%

(more compounds)
SMILES | StopGo FLuc | 2A Renilla
COc1cccc(CNC(=O)C2=C(C)C(=O)OC23CCN(C(C)=O)CC3)c1OC | -12% | -6%
CN(C)CCCN(C(=O)c1ccc(Br)s1)c1nc2ccc(F)cc2s1 | 68%[activator] | 12%
CCOC(=O)c1cc(C)n(CC2CCC(C(=O)Nc3cccc(C)c3)CC2)c1C (stereo not given) | 15% | -17%
Cc1ccccc1C(=O)Nc1c(C(=O)Nc2cccc(F)c2)oc2ccccc12 | -6% | -8%
Cc1ccc(-c2nnc(Nc3cccc(Br)c3)c3ccccc23)cc1S(=O)(=O)N1CCN(C)CC1 | -13% | 60%[activator]
CCOc1ccccc1N(CC)C(=O)Cn1nc(Cc2ccncc2)c2ccccc2c1=O | -15% | 10%
COCCCNc1ncnc2onc(-c3ccc(F)cc3)c12 | -23% | 6%
O=C(CC1(C(=O)O)CCCCCC1)Nc1ccccc1NS(=O)(=O)c1ccc(F)cc1 | -9% | 19%
Cc1ccc(N2CC(NC(=O)Cc3cccs3)CC2=O)cc1 (stereo not given) | -4% | 12%
CC(=O)Oc1c(C)cc2sc3ccccc3c(=O)c2c1C | 52%[activator] | 34%
COc1ccccc1NC(=O)C(C)OC(=O)c1cc(C)nc2ccccc12 (stereo not given) | -9% | -4%
Cc1ccc2c(=O)cc(C(=O)Nc3ccc(S(=O)(=O)N4CCCCC4C)cc3)oc2c1C (stereo not given) | 4%&-6% | -2%&-2%

Structures listed so far with an aryl thioether with sulfur outside any ring, in the order listed:
SMILES | StopGo FLuc | 2A Renilla
CCn1c(SCC(=O)Nc2c(C)cccc2C)nnc1-c1nonc1NC(C)=O | 5% | -12%
O=C(O)c1cccnc1Sc1ccc(F)cc1 | -5% | 2%
COc1ccc(OC)c(C(=O)CSc2ncc3c(n2)-c2ccccc2N(Cc2ccccc2C)S3(=O)=O)c1 | -5% | -4%

(next part)
SMILES | StopGo FLuc | 2A Renilla
Cc1ccc2oc(=O)c3cc(C(=O)NCc4ccc(Cl)cc4)sc3c2c1 | 2% | -6%
COc1ccccc1NC(=O)CSc1nnc2c3ccccc3n(C)c2n1 | -1% | -7%
CC(NC(=O)c1ccc(SC(F)(F)F)cc1)c1ccncc1 (stereo not given) | -22% | ?
Cc1ccccc1NC(=O)C1CCN(C(=O)c2cnn(-c3ccccc3)c2-n2cccc2)CC1 | -14% | -20%
CCOC(=O)C1CCCN(C(=O)c2ccc3c(c2)N(Cc2ccccc2)C(=O)c2ccccc2S3(=O)=O)C1 (stereo not given) | 0% | 25%
COc1ccc(CNC(=O)CC2Sc3ccccc3NC2=O)cc1OC (stereo not given) | 143%[activator] | 13%
CCC(C)NC(=O)c1cc2n(n1)CCCN(Cc1ccc(C)cc1)C2=O (stereo not given) | 0% | 35%[activator]
COc1ccc(S(=O)(=O)Nc2cc3c(cc2NCc2ccccc2)n(C)c(=O)n3C)cc1OC | 483%[activator] | 736%[activator]
Cc1nn(Cc2ccccc2Cl)c(C)c1NC(=O)NC1CCCC1 | 4% | 0%
Cc1cccc(N(C)C(=O)CN(C)S(=O)(=O)c2ccc3[nH]c4c(c3c2)CCCC4)c1 | -11% | 73%[activator]
CN(C)C1(CNC(=S)NCCc2ccccc2)CCCCC1 | -7% | 2%[1.06 µM]
Cc1nc(-n2nc(C)c(Cc3ccccc3Cl)c2C)sc1C(=O)N1CCC(C)CC1 | -8% | -10%
O=C(NN=C1CCCC1)c1ccc(CSc2cccc3cccnc23)cc1 | 0% | -3%
CCCOC(=O)c1cc2ccccc2[nH]1 | 0% | 20%
CC1CCN(CC(=O)N(C)CC(=O)Nc2ccc(Cl)c(C(F)(F)F)c2)CC1 | 6% | 0%
Cc1ccc(-c2nnc(SCC(=O)N3CCc4ccccc43)o2)cc1 | -12% | -8%
Cc1ccc2onc(CNC(=O)NCc3ccc(Cl)cc3)c2c1 | -3% | 10%
CCn1c(CC(=O)Nc2cccc(OC)c2)nnc1SCC(=O)Nc1cccc(F)c1 | -7% | -30%
Cc1ccc2oc(=O)c(S(=O)(=O)N3CCCC(C)C3)cc2c1 (stereo not given) | 17% | 9%
NS(=O)(=O)c1ccc(N/N=C/c2ccccc2Cl)c([N+](=O)[O-])c1 | 0% | -1%
Cc1cc(NC(=O)CSc2nccn2-c2cccc(Cl)c2)no1 | 71%[activator] | 58%[activator]
O=C(O)CCCc1c(-c2ccccn2)[nH]c2ccc(Cl)cc12 | 4% | -15%
Cc1ccc(CNC(=O)Cn2c(=O)cc(C)c3c(C)nn(-c4cccc(F)c4)c32)cc1 | -16% | -12%
CCCc1cc(=O)oc2cc(OC(=O)CN3C(=O)NC4(CCCC4)C3=O)ccc12 | 14% | -8%
COc1cc(C(Nc2ccccn2)c2c(NC(=O)c3ccco3)sc(C)c2C)cc(OC)c1OC (stereo not given) | 131%[activator] | 7%
CCC(=O)N1CCc2cc(S(=O)(=O)NC(C(=O)NCc3ccc(OC)cc3)C(C)C)ccc21 (stereo not given) | -2% | -5%
COc1ccc(C(=O)OCc2nnc(-c3ccccc3)o2)cc1S(=O)(=O)N1CCCCC1C (stereo not given) | 0% | -2%
CC(C)C12CN3CCN(CC(C3)C1=O)C2 | 16% | 9%
CCOC(=O)NNC(=S)NCC1CCCO1 (stereo not given) | 2% | 7%
Cc1ccc(S(=O)(=O)N2CCN(c3nc(-c4ccccc4)nc4ccccc34)CC2)cc1 | 9% | 4%
O=C(CCc1ccccc1)NCc1nc2cccnc2n1Cc1ccc(F)cc1 | -9% | -5%
Cc1ccc(/C=C(/C#N)c2nc3ccccc3[nH]2)o1 | 237%[activator] | 36%[activator]
Cn1c(=O)[nH]c(=O)c2c1nc(CN1CCOCC1)n2Cc1ccccc1 | 3% | -3%
O=C(Nc1cccc(C(=O)OCc2cc(=O)n3nc(C4CC4)sc3n2)c1)c1ccc(F)cc1 | -14% | -4%
CCOc1ccc(NC(=O)c2nc3nc(C)cc(C(F)F)n3n2)cc1 | 8% | -9%
O=C(CSC1=Nc2ccccc2C2=NC(CC(=O)NC3CCCCC3)C(=O)N12)Nc1ccc(F)cc1 (stereo not given) | -20% | 2%

Molecules shown so far with a furan ring, fused or not (four):
SMILES | StopGo FLuc | 2A Renilla
O=S(=O)(c1ccc2oc3ccccc3c2c1)N1CCOCC1 | 21% | 28%
Cc1ccccc1C(=O)Nc1c(C(=O)Nc2cccc(F)c2)oc2ccccc12 | -6% | -8%
COc1cc(C(Nc2ccccn2)c2c(NC(=O)c3ccco3)sc(C)c2C)cc(OC)c1OC (stereo not given) | 131%[activator] | 7%
Cc1ccc(/C=C(/C#N)c2nc3ccccc3[nH]2)o1 | 237%[activator] | 36%[activator]

More records
SMILES | StopGo FLuc | 2A Renilla
CCC(C)Oc1ccccc1C1CC(=O)NC2=C1C(=O)CC(C)(C)C2 (stereo not given) | 3% | 15%
Cc1nn2c(=O)cc(COC(=O)c3ccc(NC(=O)CCc4ccccc4)cc3)nc2s1 | ? | -14%
CCSc1ncc(Cl)c(C(=O)Nc2sc(C(C)=O)c(C)c2C(=O)OC)n1 | -16% | -22%
CCN(C(=O)c1ccc2[nH]c(C)c(C)c2c1)C1CCS(=O)(=O)C1 (stereo not given) | -6% | -15%
CCOC(=O)c1cc(NC(=O)c2ccc(C(C)(C)C)cc2)c(=O)n2c1oc1cc(Cl)ccc12 | 7% | -7%
CCc1ccc2oc(C(=O)N(Cc3ccc(C(C)C)cc3)C3CCS(=O)(=O)C3)cc(=O)c2c1 (stereo not given) | -5% | -7%
CN(C)CCNC(=O)c1cc(-c2ccccn2)nc2ccccc12 | -17% | -16%
Nc1c(C(=O)Nc2cccc(Br)c2)sc2nc3c(cc12)N1CCC3CC1 | 86%[activator] | ?
CCc1ccc(NC(=O)c2c(C(=O)Nc3ccccc3)sc3nc(C)cc(=O)n23)cc1 | 19% | 14%
COc1ccc(-c2nc(CSCC(=O)NC3CC3)c(C)o2)cc1OC | 3% | 0%
CCOC(=O)c1c(C)[nH]c(C)c1S(=O)(=O)N1CCC(C(=O)Nc2ccc(C)c(N(C)C)c2)CC1 | -2% | 6%
CC(C)CC(NC(=O)/C(=C/c1ccccc1)NC(=O)c1ccccc1)C(=O)O (stereo not given) | -4% | -3%

Entries of single compounds, quoted from the list:
`CCSc1ncc(Cl)c(C(=O)Nc2sc(C(C)=O)c(C)c2C(=O)OC)n1` is listed with StopGo FLuc = -16%; 2A Renilla = -22%
`CN(C)CCCN(C(=O)c1ccc(Br)s1)c1nc2ccc(F)cc2s1` is listed with StopGo FLuc = 68%[activator]; 2A Renilla = 12%
`CCCc1cc(=O)oc2cc(OC(=O)CN3C(=O)NC4(CCCC4)C3=O)ccc12` is listed with StopGo FLuc = 14%; 2A Renilla = -8%
